# miR-21 FLuc: qHTS Assay for Modulators of miRNAs and/orActivators of miR-21; AID 2288, 2010; HeLa miR-21 FLuc reporter, luciferase, 48 h; 340,000 tested, under 10 active; Potency, µM (titrated, usually from 38.3 µM), without a hit: at the highest dose reporter change, positive = more light; active = well fitted rising curve with a large enough effect; inconclusive = small, poorly fitted or top-dose-only effect; inactive = no such curve, though single readings can be large or run the other way;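 also: % of control where 0% means no effect; miR-21 action dims this reporter so a rising signal means less miR-21 action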
#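 HeLa miR-21-FLuc reporter line, endogenous miR-21; 2000 cells/well in DMEM/10% FBS; compound titration up to ~40uM final, 48 h, 37 degree Celsius; luciferase detection reagent, 15 min lysis, CCD luminescence.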
# GLA inh pH 4.5: qHTS Assay for Inhibitors of Human alpha-Galactosidase at pH 4.5; activity change, negative = inhibition, % at 105 µM; purified enzyme, 4-MU-alpha-Gal fluorescence, pH 4.5; 230,000 tested, under 10 active; Alpha-galactosidase A (Homo sapiens), P06280; inconclusive = small, poorly fitted or top-dose-only inhibition, or a rising curve; inactive = flat fitted curve, though single readings scatter; no compound was filed as active;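 also: 0% = full activity with enzyme and -100% = basal without enzyme; dose as in the result columns while the protocol names 77 µM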
# Rango-impB inh: qHTS Assay for Inhibitors of Rango (Ran-regulated importin-beta cargo) - Importin beta complex formation; Rango CFP/YFP FRET sensor + importin beta, 45 min; Potency, µM (titrated, usually from 92.2 µM), for the others: at the highest dose inhibition of complex formation; 340,000 tested, 0.031% active; active = rising FRET ratio curve, often small or poorly fitted; inconclusive = mostly compound fluorescence or quenching in the first reads; inactive = flat curves in all reads;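 also: potency is read from the fitted curve at half-maximal effect; 0% = DMSO wells and 100% = buffer wells lacking importin beta; nearly all actives have a fitted effect of over 15% in size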
# Target sequence (Q14974 whole entry, looked up): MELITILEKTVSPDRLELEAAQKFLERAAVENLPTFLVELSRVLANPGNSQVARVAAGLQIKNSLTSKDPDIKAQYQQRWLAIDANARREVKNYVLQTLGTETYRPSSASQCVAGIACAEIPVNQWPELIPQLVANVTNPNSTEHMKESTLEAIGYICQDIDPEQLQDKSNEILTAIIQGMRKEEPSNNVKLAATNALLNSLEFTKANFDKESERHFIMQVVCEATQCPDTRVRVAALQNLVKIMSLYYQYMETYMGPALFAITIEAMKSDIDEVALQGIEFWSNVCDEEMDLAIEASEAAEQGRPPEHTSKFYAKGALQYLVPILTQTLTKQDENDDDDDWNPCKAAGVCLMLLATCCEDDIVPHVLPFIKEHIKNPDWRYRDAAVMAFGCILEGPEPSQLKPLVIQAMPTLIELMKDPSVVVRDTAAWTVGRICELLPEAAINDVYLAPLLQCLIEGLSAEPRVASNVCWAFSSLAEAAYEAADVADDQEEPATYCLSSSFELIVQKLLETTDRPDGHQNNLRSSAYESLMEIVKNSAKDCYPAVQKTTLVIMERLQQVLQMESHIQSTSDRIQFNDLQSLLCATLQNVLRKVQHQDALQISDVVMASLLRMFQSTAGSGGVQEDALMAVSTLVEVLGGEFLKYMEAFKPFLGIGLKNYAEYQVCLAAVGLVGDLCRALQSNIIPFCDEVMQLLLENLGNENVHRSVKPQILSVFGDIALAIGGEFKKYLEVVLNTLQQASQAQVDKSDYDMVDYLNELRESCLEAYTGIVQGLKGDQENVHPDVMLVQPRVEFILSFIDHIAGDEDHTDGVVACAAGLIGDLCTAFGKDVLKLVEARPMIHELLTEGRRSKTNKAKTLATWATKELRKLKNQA
#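 FRET biosensor Rango (snurportin 1 IBB between N-terminal EYFP and C-terminal Cerulean), 50 nM in PBS/1 mM DTT/0.02% Tween-20/0.1% BSA, preincubated 5 min RT with compound; 0.125 microM importin beta added, 45 min RT, CFP/YFP FRET ratio read.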
# Rango release inh: qHTS Assay for Inhibitors of RanGTP induced Rango (Ran-regulated importin-beta cargo) - Importin beta complex dissociation. Snurportin-1 (Homo sapiens) + GTP-binding nuclear protein Ran (Homo sapiens) + Importin …. 340,000 tested, 0.071% active. Potency, µM (top dose mostly 46.1 µM), for inactives: at the highest dose activity change, negative = inhibition. Biochemical FRET Rango-importin beta, RanGTP-induced dissociation; active means falling FRET ratio curve, often poorly fitted, with flat reads before Ran was added; inconclusive means other falling curves, or compound fluorescence or quenching; inactive means flat or rising ratio curve;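 also: potency is read from the fitted curve at half-maximal effect; % of control where 0% means no effect; nearly all actives have a fitted effect of over 45% in size; -100% = wells without RanGTP and RCC1; the record marks most hits as doubtful in a second field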
#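 Rango/importin beta premix (0.1/0.25 uM final), PBS + 1 mM DTT + 0.02% Tween-20 + 0.1% BSA; cpd 5 min RT; FRET pre-read; + RanGTP-RCC1 (0.6 uM Ran, 2 mM GTP, 0.2 uM RCC1); 45 min RT; FRET post-read, ex 430, em 486/530 nm.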
# * marks the source's active call; other numbers are inactive results; ? = inconclusive; nt = no result given.
SMILES,miR-21 FLuc,GLA inh pH 4.5,Rango-impB inh,Rango release inh
Cc1onc(-c2ccccc2)c1-c1nnc(-c2ccccc2C(F)(F)F)o1,7%,2,3.2%,11%
CCCCCCCCCCS(=O)(=O)N/N=C/c1ccc(O)cc1,0%,-3,2.1%,-12%
CC(C)(C)C(=O)Cn1nnc(-c2ccc(C(F)(F)F)cc2)n1,-12%,-5,-1.3%,0%
Cn1cc(/C=C2\SC(=S)N(NC(=O)c3ccccc3)C2=O)c2ccccc21,2%,-4,?,?
COc1ccc(C(=O)NCc2ccc3c(c2)OCO3)cc1,-10%,-4,-2.2%,-1%
COc1cccc(NC(=O)CN(C)C(=O)Cn2c(=O)oc3ccccc32)c1,nt,nt,2.9%,-16%
O=C(Nc1ccc(Cl)cc1)N1CCOCC1,-13%,nt,-2.0%,10%
COc1ccc([C@H]2CC(=O)C=C(/C=C/c3ccccc3)C2)cc1,nt,nt,-3.8%,6%
O=C1C2C3C=CC(CC3)C2C(=O)N1/N=C/c1ccco1 (stereo unspecified),-3%,1,5.9%,-3%
O=C1CC(N2CCN(c3ncccn3)CC2)C(=O)N1CCc1ccccc1 (stereo unspecified),4%,12,0.0%,17%
COc1ccc(S(=O)(=O)N2CCOCC2)cc1NC(=O)c1ccc(-n2nc(C)cc2C)cc1,1%,3,-0.8%,2%
Cc1ccc(/C=C2\C(=N)N3N=C(CC(=O)N4CCCCC4)SC3=NC2=O)cc1,-1%,nt,?,-2%
CN(CCC#N)C(=S)Nc1ccc(Oc2ccccc2)cc1,-3%,2,0.6%,1%
O=S(=O)(Nc1cccc2[nH]ncc12)c1cccs1,0%,10,0.4%,14%
O=c1c(N2CCOCC2)nsn1Cc1ccccc1,-4%,-7,0.2%,7%
Clc1ccc(-c2csc(-c3cccnc3)n2)s1,-43%,-5,-1.3%,-11%
O=C(NCCOc1ccccc1)c1cncc(Br)c1,-50%,3,-1.6%,3%
O=C(Nc1ccc(N2CCCC2)cc1)c1cc(Br)ccc1Cl,4%,nt,-0.4%,8%
CCn1c(/C=C/Nc2ccccc2)[n+](CC)c2ccc(C(=O)OCC(F)(F)F)cc21,-1%,-7,?,-28%
COCCCNc1nc2nonc2nc1N1C[C@H]2CC[C@H]1C2,6%,-6,-4.7%,-20%
COc1cc(/C=N\NC(=O)c2ccc(Cl)cc2)ccc1Oc1ccc([N+](=O)[O-])cn1,2%,-4,-0.7%,-4%
Cc1ccc(CN/C=C/C(=O)c2ccc(Br)cc2)cc1,-26%,-14,?,-25%
CCCCCC(=O)Nc1ccc(C(=O)COC(=O)CN2C(=O)NC3(CCCC3)C2=O)cc1,nt,nt,-3.6%,-11%
C/C(=N\NC(=O)CNC(=O)c1ccccc1F)c1ccco1,-8%,nt,0.3%,-6%
CCOC(=O)C1(Cc2ccc(Cl)cc2)CCN(C(C)Cc2ccc(O)c(OC)c2)CC1 (stereo unspecified),26%,nt,6.4%,?
CC(C)Sc1nnc(Nc2ccccc2)s1,-47%,3,-2.8%,-5%
CCN(CCNC(=O)C1CCN(c2nnc(-n3cccc3)s2)CC1)c1ccccc1,0%,5,-0.5%,-1%
NC(=S)NNc1ccc(Cl)c(Cl)c1,19%,-9,-1.2%,?
COc1ccc(NC(=O)CNc2ccc(C#N)cc2)cc1,-9%,9,-1.6%,?
CCOC(=O)C1(C)NC(c2ccccc2F)C2C(=O)N(c3cccc(C(C)=O)c3)C(=O)C21 (stereo unspecified),-1%,0,-3.3%,4%
O=C(CC1C=CCC1)Nc1ccccc1 (stereo unspecified),nt,nt,-1.7%,11%
CN(CCOc1ccc(Cl)cc1)C(=O)c1ccc(S(=O)(=O)N2CCOCC2)cc1,5%,3,-1.1%,-10%
COc1ccc(CNCc2ccc(OC)c3ccccc23)cc1,-5%,nt,-0.9%,8%
Cc1ccsc1C(=O)N1CCN(c2ncccn2)CC1,nt,nt,-0.5%,-4%
Cc1ccccc1C(=O)NNC(=O)C(=O)Nc1cccc(Cl)c1C,-7%,-5,6.8%,16%
O=[N+]([O-])c1ccc(N2CCN(Cc3ccccc3)CC2)s1,-1%,nt,2.0%,-7%
COc1ccccc1CNC(=O)CCNC(=O)c1ccco1,nt,nt,3.1%,24%
CCOc1ccc(OCCOC(=O)C2CCN(S(=O)(=O)c3ccc(C)c(C)c3)CC2)cc1,nt,nt,0.9%,-5%
CCOC(=O)c1cnc2c(OC)cccc2c1N1CC(C)CC(C)C1 (stereo unspecified),16%,nt,-4.0%,9%
CC1CC(C)CN(CCCNC(=O)c2ccc(CNS(=O)(=O)c3ccc(F)cc3)cc2)C1 (stereo unspecified),-4%,nt,-5.3%,2%
C=CC[C@]12CC=CC(=O)[C@@]1(O)O[C@H](c1ccc(OC)c(OC)c1)[C@H]2C,nt,nt,-1.5%,14%
C=CCOc1ccc(/C=C\c2nc(O)c([N+](=O)[O-])c(=O)[nH]2)cc1OCC,-2%,nt,4.5%,-4%
Cc1ccc(NC(=O)NC(=O)CSc2n[nH]c(N)n2)c(C)c1,0%,8,-2.6%,-3%
CC(C)C(C(=O)O)N1CCS(=O)(=O)CC1 (stereo unspecified),0%,0,6.4%,0%
CC(=O)N/C(=C\c1ccccc1)C(=O)NCC(=O)O,2%,-13,-0.4%,21%
O=C(Cn1cnc([N+](=O)[O-])n1)NCc1ccccc1,-1%,-1,-1.3%,-19%
O=C(c1cnn(-c2ccc(Cl)cc2)c1)c1ccccc1O,-48%,-8,4.6%,8%
COCC(C)NS(=O)(=O)c1ccc(NC(=O)C(Cc2ccccc2)NC(N)=O)cc1 (stereo unspecified),-1%,-1,-1.3%,7%
Cc1cccn2c(=O)nc(SCC(=O)NCc3ccc4c(c3)OCO4)nc12,nt,nt,3.7%,2%
COc1cccc(OC)c1OC(=O)c1cnccn1,-2%,nt,-2.3%,-7%
CCOCc1nnc(NC(C)=O)s1,0%,2,-0.6%,0%
CCc1ccc(C(=O)OCC(=O)NCCNC(=O)COC(=O)c2ccc(CC)cc2)cc1,0%,nt,?,0%
CN(C)c1ccc2c(=O)[nH][nH]c(=O)c2c1,-1%,1,-2.2%,0%
COC(CNC(=O)c1ccc2nc3ccccc3c(=O)n2c1)OC,-7%,nt,?,?
Nc1c(Cl)cc(C2=NCCn3c2c2ccc([N+](=O)[O-])cc2[n+]3[O-])cc1Cl,nt,nt,9.7%,-4%
Cc1ccc(-n2[nH]c(C)c(CCC#N)c2=O)cc1,-9%,5,5.2%,11%
COc1ccc(OC)c(NC(=O)c2cccc(Cn3cc(Br)c([N+](=O)[O-])n3)c2)c1,-5%,-14,3.9%,-8%
O=C(NNC(=O)c1cccnc1SCc1cccc([N+](=O)[O-])c1)c1cccnc1,-5%,2,-4.8%,9%
COc1ccc(CCNC(=S)N(C)C)cc1OC,0%,3,3.0%,-9%
COc1ccc(-c2sc3ccccc3c2C#CC2(O)CCCCC2)cc1,3%,nt,0.8%,-16%
# The list goes on:
SMILES,miR-21 FLuc,GLA inh pH 4.5,Rango-impB inh,Rango release inh
C[C@H]1[C@H](C)CC[C@]2(C(=O)O)CC[C@]3(C)C(=CC[C@@H]4[C@@]5(C)C[C@@H](O)[C@H](O)C(C)(C)[C@@H]5CC[C@]43C)[C@H]12,-1%,1,3.6%,-15%
COc1cccc(/C=N/NC(=O)c2ccc3nc[nH]c3c2)c1O,0%,-4,-5.3%,4%
O=C(Nc1cccc(Cl)c1)c1ccc(NCC2CCCO2)c([N+](=O)[O-])c1 (stereo unspecified),-13%,-4,1.4%,7%
CCc1cc2cc3c(cc2nc1SCC(=O)Nc1cc(OC)c(OC)cc1C(=O)O)OCO3,0%,0,nt,nt
CCOc1ccc(-c2nnc3ccc(SCc4ccc(C(=O)OC)o4)nn23)cc1,0%,-23,-1.6%,-5%
O=C(NC1CCCCC1)N1CCC(n2c(=O)[nH]c3ccccc32)CC1,-8%,-3,-1.2%,23%
O=C(CCCCCCC(=O)NCc1ccccc1)NCc1ccccc1,-3%,nt,0.2%,12%
O=C(O)C1CCCCC1C(=O)Nc1ccc(F)c(F)c1 (stereo unspecified),-7%,5,-1.0%,7%
Cc1ccoc1C(=O)NCCNc1ccc(Cl)cc1[N+](=O)[O-],-29%,-20,2.6%,-5%
CC(/C=N/NC(=O)c1ccco1)=C\c1ccccc1,-24%,6,0.0%,1%
Cc1ccc(C)n1-c1cc([N+](=O)[O-])ccc1-n1ccnc1,-2%,5,-0.5%,-1%
Cc1cc(NC(=O)CSc2nnc(Cn3c(=O)sc4ccccc43)n2-c2ccccc2C)no1,-8%,-5,-0.3%,-11%
O=C(C1=C(O)C(=O)N(CCN2CCOCC2)C1c1ccc([N+](=O)[O-])cc1)c1cccs1 (stereo unspecified),-10%,nt,0.0%,-18%
O=C(CSc1nnc(-c2ccncc2)n1CCc1ccccc1)N1CCCC1,-9%,5,nt,nt
CC(C)(C)c1ccc(C(=O)NCC(=O)OCC(=O)Nc2ccc3c(c2)OCCO3)cc1,-12%,-1,-2.1%,-8%
CCOC(=O)CCCCC(=O)c1[nH]c(=O)[nH]c1CN1CCOCC1,1%,-3,-0.2%,4%

# In a second layout: 16 of the compounds above.
Compound	miR-21 FLuc	GLA inh pH 4.5	Rango-impB inh	Rango release inh
C[C@H]1[C@H](C)CC[C@]2(C(=O)O)CC[C@]3(C)C(=CC[C@@H]4[C@@]5(C)C[C@@H](O)[C@H](O)C(C)(C)[C@@H]5CC[C@]43C)[C@H]12	-1%	1	3.6%	-15%
COc1cccc(/C=N/NC(=O)c2ccc3nc[nH]c3c2)c1O	0%	-4	-5.3%	4%
O=C(Nc1cccc(Cl)c1)c1ccc(NCC2CCCO2)c([N+](=O)[O-])c1 (stereo unspecified)	-13%	-4	1.4%	7%
CCc1cc2cc3c(cc2nc1SCC(=O)Nc1cc(OC)c(OC)cc1C(=O)O)OCO3	0%	0	nt	nt
CCOc1ccc(-c2nnc3ccc(SCc4ccc(C(=O)OC)o4)nn23)cc1	0%	-23	-1.6%	-5%
O=C(NC1CCCCC1)N1CCC(n2c(=O)[nH]c3ccccc32)CC1	-8%	-3	-1.2%	23%
O=C(CCCCCCC(=O)NCc1ccccc1)NCc1ccccc1	-3%	nt	0.2%	12%
O=C(O)C1CCCCC1C(=O)Nc1ccc(F)c(F)c1 (stereo unspecified)	-7%	5	-1.0%	7%
Cc1ccoc1C(=O)NCCNc1ccc(Cl)cc1[N+](=O)[O-]	-29%	-20	2.6%	-5%
CC(/C=N/NC(=O)c1ccco1)=C\c1ccccc1	-24%	6	0.0%	1%
Cc1ccc(C)n1-c1cc([N+](=O)[O-])ccc1-n1ccnc1	-2%	5	-0.5%	-1%
Cc1cc(NC(=O)CSc2nnc(Cn3c(=O)sc4ccccc43)n2-c2ccccc2C)no1	-8%	-5	-0.3%	-11%
O=C(C1=C(O)C(=O)N(CCN2CCOCC2)C1c1ccc([N+](=O)[O-])cc1)c1cccs1 (stereo unspecified)	-10%	nt	0.0%	-18%
O=C(CSc1nnc(-c2ccncc2)n1CCc1ccccc1)N1CCCC1	-9%	5	nt	nt
CC(C)(C)c1ccc(C(=O)NCC(=O)OCC(=O)Nc2ccc3c(c2)OCCO3)cc1	-12%	-1	-2.1%	-8%
CCOC(=O)CCCCC(=O)c1[nH]c(=O)[nH]c1CN1CCOCC1	1%	-3	-0.2%	4%

# Some of the compounds tested, so the mix of outcomes need not match the whole.
